Screening results as filed in PubChem BioAssay.
DUX4 txn inh = DUX4-mediated transcription inhibition. 293T-iDUX4 ZSCAN4-Gaussia luciferase reporter, 24 h; stronger effect = lower value. activity change, negative = inhibition, % (test concentration not listed). 0.8% of 37,000 active. AID 1224904;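 active = -10% or lower and over 25 points stronger than a control reporter; inconclusive = -10% or lower with a smaller gap; inactive = above -10%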;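 note: 0% = median of neutral control wells and -100% = median of positive control wells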
DUX4 txn inh difference = further read-out of DUX4 txn inh, marked with its call; Gaussia minus Italica difference, %; measured here: selective DUX4 reporter inhibition;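 worked out from the two reporters; negative = selective loss of the DUX4 reporter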
DUX4 txn inh control = further read-out of DUX4 txn inh, marked with its call; activity change, negative = inhibition, %; measured here: Italica tet-on control reporter;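 0 = neutral control and -100 = positive control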
Numbers without * were called inactive; u = inconclusive; x = no result given.

The line under a structure holds: DUX4 txn inh	DUX4 txn inh difference	DUX4 txn inh control
1) C[C@H]1CN([C@@H](C)CO)C(=O)c2cccc(NC(=O)C3CCCCC3)c2O[C@H]1CN(C)C(=O)Nc1ccc(F)cc1
→ 7	6	0.2
2) CO[C@@H](CN(C)S(=O)(=O)c1ccc(F)cc1)[C@@H](C)CN(Cc1ccccc1Cl)[C@@H](C)CO
→ -1	-6	4.7
3) O=C(CN1CCOCC1)N1CCCCN2[C@H](C1)[C@@H](c1ccc(/C=C/c3ccccc3)cc1)[C@@H]2CO
→ -7	3	-9.4
4) Cc1cccc(S(=O)(=O)N(C)C[C@@H]2OCc3cn(nn3)CCCC(=O)N([C@H](C)CO)C[C@H]2C)c1
→ -1	0	-1.3
5) CCCC(=O)N1CC2(C1)CN(Cc1ccc(Cl)cc1)[C@H](CO)c1[nH]c3cc(OC)ccc3c12
→ -80*	-33*	-48*
6) COc1ccc2c3c([nH]c2c1)[C@H](CO)N(C(=O)c1ccncc1)CC31CN(C)C1
→ 0	-4	3.5
7) COc1ccccc1S(=O)(=O)N[C@H]1CC[C@H](CCn2cc(C3CCCCC3)nn2)O[C@@H]1CO
→ 0	0	-0.2
8) COCC#Cc1cnc2c(c1)C(=O)N([C@@H](C)CO)C[C@@H](C)[C@@H](CN(C)C(=O)c1cnccn1)O2
→ 1	2	-0.8
9) CCNC(=O)C[C@@H]1CC[C@H]2[C@H](COc3ccc(NC(C)=O)cc3C(=O)N2C)O1
→ 3	-2	5.0
10) COC(=O)C[C@@H]1CC[C@@H]2[C@@H](COc3ccc(NC(=O)Nc4cccc(C#N)c4)cc3C(=O)N2C)O1
→ u	x	x
11) COc1ccccc1CNC(=O)C[C@@H]1C[C@H]2c3cc(NS(C)(=O)=O)ccc3O[C@H]2[C@H](CO)O1
→ 1	0	0.6
12) O=C(Nc1cc(F)ccc1F)N1C[C@H]2[C@@H](c3ccccc31)[C@@H](CO)N2Cc1ccncc1
→ 4	4	-0.2
13) O=C(NCC1CC1)[C@@H]1[C@@H](CO)[C@@H]2Cn3c(ccc(-c4cccc(F)c4)c3=O)[C@@H]2N1CC1CCCC1
→ u	x	x
14) Cc1noc(C)c1NC(=O)Nc1ccc2c(c1)C(=O)N([C@H](C)CO)C[C@H](C)[C@H](CN(C)S(=O)(=O)c1cn(C)cn1)OCCCC[C@@H](C)O2
→ 3	1	2.8
15) C[C@@H]1CN([C@H](C)CO)C(=O)CCCn2cc(nn2)CO[C@@H]1CN(C)C(=O)Cc1ccccc1
→ 6	0	5.9
16) CN(C)CC#Cc1ccc([C@@H]2[C@H](CO)N3CCCCN(CC4CCOCC4)C[C@@H]23)cc1
→ 27	26	0.8
17) COc1ccccc1-c1ccc([C@@H]2[C@@H](C#N)N[C@@H]2CO)cc1
→ 0	-1	0.6
18) CCCNC(=O)NC[C@H]1[C@H](c2ccc(C3=CCCCC3)cc2)[C@@H](CO)N1C(C)=O
→ -5	-4	-1.3
19) NCC[C@H]1CC[C@H](NS(=O)(=O)c2ccccc2F)[C@@H](CO)O1
→ 1	3	-1.8
20) COCC(=O)Nc1ccc2c(c1)[C@H]1C[C@@H](CC(=O)N[C@H](C)c3ccccc3)O[C@@H](CO)[C@H]1O2
→ 6	4	2.1
21) COc1ccc(C#Cc2ccc([C@H]3[C@H](CO)N4CCCCN(S(=O)(=O)c5ccccc5)C[C@@H]34)cc2)cc1
→ -30*	-28*	-2.3*
22) CN1c2ccc(-c3cccc(F)c3)cc2[C@H]2[C@H](CCN2C(=O)Cc2ccccc2)[C@@H]1CO
→ 17	19	-1.5
23) C[C@H]1CN([C@@H](C)CO)C(=O)c2cccc(NC(=O)Nc3ccc4c(c3)OCO4)c2O[C@@H]1CN(C)Cc1ccc(C(=O)Nc2ccccc2N)cc1
→ 1	-4	4.5
24) CN1C(=O)c2cc(NC(=O)c3ccc(F)c(F)c3)ccc2OC[C@@H]2O[C@@H](CC(=O)N3CCCCC3)CC[C@@H]21
→ 0	0	-0.2
25) COc1ccc(-c2ccc3c(c2)[C@@H]2[C@@H](CCN2C(=O)CN2CCOCC2)[C@@H](CO)N3)cc1
→ 9	-13	21
26) CCCNC(=O)[C@H]1[C@H](CO)[C@H]2Cn3c(ccc(-c4ccccc4F)c3=O)[C@H]2N1C
→ 9	6	3.4
27) O=C(C[C@H]1CC[C@H]2[C@@H](COC[C@@H](O)CN2S(=O)(=O)c2ccc(F)cc2)O1)NCc1ccc(Cl)c(Cl)c1
→ u	x	x
28) O=C(C[C@H]1CC[C@@H](NS(=O)(=O)c2ccc(F)cc2)[C@@H](CO)O1)NCCc1ccncc1
→ -3	-5	2.7
29) COc1ccc(C#Cc2ccc([C@@H]3[C@@H](CO)N4C(=O)CN(C(=O)C5CCOCC5)C[C@H]34)cc2)cc1
→ 3	0	2.3
30) CC(C)NC(=O)N[C@H]1C=C[C@H](CC(=O)NCc2ccc(Oc3ccccc3)cc2)O[C@H]1CO
→ 0	-5	5.3

Next compounds.
The line under a structure holds: DUX4 txn inh	DUX4 txn inh difference	DUX4 txn inh control
31) O=C(C[C@H]1CC[C@H]2[C@@H](COC[C@H](O)CN2Cc2ccccc2F)O1)N1CCc2ccccc2C1
→ u	x	x
32) C[C@@H](O)C#Cc1cnc2c(c1)C(=O)N([C@@H](C)CO)C[C@H](C)[C@@H](CN(C)C(=O)CN1CCOCC1)O2
→ 1	1	-0.3
33) C[C@@H]1CN([C@@H](C)CO)S(=O)(=O)c2ccc(-c3ccccc3F)cc2O[C@@H]1CN(C)Cc1cncnc1
→ 1	1	-0.4
34) C[C@H]1CN([C@@H](C)CO)C(=O)CCCn2cc(nn2)CO[C@@H]1CN(C)Cc1ccc(C(=O)Nc2ccccc2N)cc1
→ -4	-12	8.5
35) COc1ccc2c3c(n(C)c2c1)[C@@H](CO)N(C(=O)CC1CC1)CC31CN(C(=O)C2CC2)C1
→ 17	3	15
36) Cc1ccc(S(=O)(=O)N2CC[C@@H]3[C@H](CO)Nc4ccc(C#Cc5ccc(F)cc5)cc4[C@@H]32)cc1
→ -5	-15	10
37) CNC[C@@H]1Oc2ccc(NC(=O)CCN3CCOCC3)cc2CC(=O)N([C@@H](C)CO)C[C@H]1C
→ 2	7	-4.3
38) O=C(C[C@H]1CC[C@@H]2[C@H](COC[C@H](O)CN2C(=O)c2ccc(F)cc2)O1)Nc1ccc(-c2ccccc2)cc1
→ u	x	x
39) Cc1ccc(S(=O)(=O)N(C)C[C@@H]2OCc3ccccc3-c3ccccc3C(=O)N([C@@H](C)CO)C[C@H]2C)cc1
→ 13	7	6.9
40) CNC[C@@H]1Oc2c(NC(=O)C3CCOCC3)cccc2C(=O)N([C@H](C)CO)C[C@@H]1C
→ 1	-1	2.8
41) C[C@@H]1CCCCO[C@@H](CN(C)C(=O)c2ccncc2)[C@H](C)CN([C@H](C)CO)C(=O)c2cc(NC(=O)NC3CCCCC3)ccc2O1
→ -1	6	-6.9
42) Cc1noc(C)c1NC(=O)N(C)C[C@@H]1OCCCC[C@H](C)Oc2ccc(NC(=O)c3ccncc3)cc2C(=O)N([C@H](C)CO)C[C@@H]1C
→ 0	2	-1.9
43) COc1ccc(-c2ccc3c(c2)[C@H]2[C@H](CCN2C(=O)C2CCCCC2)[C@H](CO)N3C)cc1
→ u	x	x
44) CCCNC(=O)N1CC2(C1)[C@H](c1ccccc1)[C@@H](CO)N2Cc1ccc(Cl)cc1
→ u	x	x
45) C[C@H]1CN([C@@H](C)CO)C(=O)c2cc(/C=C/c3ccccc3)cnc2O[C@H]1CN(C)Cc1cccc(C(=O)O)c1
→ -3	-1	-1.9
46) COCC(=O)N1CC[C@@H]2[C@H]1c1cc(-c3cccc(OC)c3)ccc1N(C)[C@@H]2CO
→ u	x	x
47) CC(C)NC(=O)N(C)C[C@@H]1Oc2cc(-c3ccccc3)ccc2S(=O)(=O)N([C@@H](C)CO)C[C@H]1C
→ 5	2	2.4
48) O=C(C1CCCCC1)N1CC2(C1)[C@@H](c1ccccc1)[C@H](CO)N2Cc1ccccc1F
→ -2	5	-7.0
49) COc1cccc(-c2ccc3c(c2)[C@@H]2[C@@H](CCN2S(=O)(=O)c2ccccc2F)[C@@H](CO)N3C)c1
→ u	x	x
50) CCC(=O)N1[C@H](CO)[C@@H](c2ccccc2)[C@H]1CN(C(C)C)S(C)(=O)=O
→ 0	1	-0.7
51) O=C(NCC1CC1)[C@H]1[C@H](CO)[C@H]2Cn3c(ccc(/C=C/c4ccccc4)c3=O)[C@@H]1N2C(=O)C1CCC1
→ -3	0	-3.0
52) Cc1noc(C)c1S(=O)(=O)N(C)C[C@H]1OCCCC[C@@H](C)Oc2ccc(N(C)C)cc2C(=O)N([C@@H](C)CO)C[C@@H]1C
→ -1	-4	2.5
53) CCCNC(=O)NC[C@@H]1[C@@H](c2ccc(C3=CCCC3)cc2)[C@@H](CO)N1C(=O)CC
→ 2	0	1.7
54) CCCNC(=O)C[C@H]1CC[C@@H]2[C@H](COc3ccc(NC(=O)CC)cc3C(=O)N2C)O1
→ -1	-3	1.9
55) CNC(=O)C[C@H]1CC[C@@H]2[C@H](COc3ccc(NC(=O)NC(C)C)cc3C(=O)N2C)O1
→ 4	3	1.8
56) CNC[C@@H]1OCCCC[C@H](C)Oc2ccc(NS(=O)(=O)c3cccs3)cc2C(=O)N([C@@H](C)CO)C[C@H]1C
→ -1	-2	0.9
57) C[C@H]1CCCCO[C@@H](CN(C)Cc2ccc(C(=O)O)cc2)[C@@H](C)CN([C@@H](C)CO)C(=O)c2cc(N(C)C)ccc2O1
→ 3	4	-0.7
58) Cc1cccc(-c2ccc([C@H]3[C@H](CO)N4C(=O)CN(C(=O)c5cnccn5)C[C@@H]34)cc2)c1
→ 6	3	2.7
59) Cc1noc(C)c1NC(=O)N[C@@H]1C=C[C@@H](CC(=O)Nc2ccc(-c3ccccc3)cc2)O[C@@H]1CO
→ 5	5	-0.2
60) O=C(NCc1ccc(F)cc1)[C@@H]1[C@@H](CO)[C@@H]2Cn3c(ccc(C4=CCCCC4)c3=O)[C@H]1N2
→ 1	3	-2.4

Following part:
The line under a structure holds: DUX4 txn inh	DUX4 txn inh difference	DUX4 txn inh control
61) CCCN1[C@H](CO)[C@H](c2ccc(C3=CCCCC3)cc2)[C@@H]1CNS(C)(=O)=O
→ -2	0	-2.2
62) CN1CCN(C(=O)c2cc3c(c(-c4cccc(-c5ccccc5F)c4)n2)[C@@H](CCO)N([S@](=O)C(C)(C)C)C3)CC1
→ 4	-1	4.8
63) C[C@@H]1CN([C@H](C)CO)C(=O)CCCn2cc(nn2)CO[C@@H]1CN(C)Cc1ccc(Cl)c(Cl)c1
→ -7	-8	0.5
64) N#C[C@@H]1[C@H](c2ccccc2C2=CCCC2)[C@@H](CO)N1C(=O)C1CCOCC1
→ 8	7	0.9
65) C[C@H](CO)N1C[C@H](C)[C@H](CN(C)C(=O)C2CCCCC2)OCCCC[C@H](C)Oc2ccc(NS(=O)(=O)c3ccccc3)cc2C1=O
→ -1	-7	5.9
66) O=C(N[C@H]1CC[C@H](CCNC(=O)C2CCOCC2)O[C@H]1CO)c1ccccn1
→ -3	-2	-0.5
67) O=C(C1CCC1)N1CC2(C1)[C@@H](c1ccccc1)[C@@H](CO)N2Cc1ccccc1F
→ u	x	x
68) O=C(N[C@@H]1CC[C@@H](CC(=O)N2CCOCC2)O[C@@H]1CO)c1cccc(F)c1
→ 1	-5	6.5
69) CO[C@H]1CC[C@H]2CCN(C)C(=O)[C@@H](C)[C@H](OC)CN(C)C(=O)c3cc(C#N)ccc3OC[C@@H]1O2
→ 5	4	0.8
70) C[C@@H]1CN([C@@H](C)CO)C(=O)c2cccc(NS(=O)(=O)c3ccc(F)cc3)c2O[C@H]1CN(C)S(=O)(=O)c1cccs1
→ 1	2	-1.6
71) Cc1noc(C)c1S(=O)(=O)Nc1ccc2c(c1)C(=O)N([C@H](C)CO)C[C@@H](C)[C@@H](CN(C)Cc1ccc(C(=O)O)cc1)OCCCC[C@H](C)O2
→ -1	2	-3.7
72) O=C(Nc1cccc(F)c1)N1CC(=O)N2[C@@H](CO)[C@@H](c3ccc(Br)cc3)[C@@H]2C1
→ 3	3	0.2
73) CC(=O)N1CC(=O)N2[C@H](C1)[C@H](c1ccc(-c3ccc(C)cc3)cc1)[C@@H]2CO
→ 9	3	5.7
74) O=C(C[C@H]1CC[C@H]2[C@@H](COC[C@@H](O)CN2C(=O)c2ccccc2)O1)NCc1ccc(-c2ccccc2)cc1
→ -7	-2	-4.9

Random excerpt: 7 entries already listed
The line under a structure holds: DUX4 txn inh	DUX4 txn inh difference	DUX4 txn inh control
65) C[C@H](CO)N1C[C@H](C)[C@H](CN(C)C(=O)C2CCCCC2)OCCCC[C@H](C)Oc2ccc(NS(=O)(=O)c3ccccc3)cc2C1=O
→ -1	-7	5.9
61) CCCN1[C@H](CO)[C@H](c2ccc(C3=CCCCC3)cc2)[C@@H]1CNS(C)(=O)=O
→ -2	0	-2.2
72) O=C(Nc1cccc(F)c1)N1CC(=O)N2[C@@H](CO)[C@@H](c3ccc(Br)cc3)[C@@H]2C1
→ 3	3	0.2
64) N#C[C@@H]1[C@H](c2ccccc2C2=CCCC2)[C@@H](CO)N1C(=O)C1CCOCC1
→ 8	7	0.9
62) CN1CCN(C(=O)c2cc3c(c(-c4cccc(-c5ccccc5F)c4)n2)[C@@H](CCO)N([S@](=O)C(C)(C)C)C3)CC1
→ 4	-1	4.8
73) CC(=O)N1CC(=O)N2[C@H](C1)[C@H](c1ccc(-c3ccc(C)cc3)cc1)[C@@H]2CO
→ 9	3	5.7
63) C[C@@H]1CN([C@H](C)CO)C(=O)CCCn2cc(nn2)CO[C@@H]1CN(C)Cc1ccc(Cl)c(Cl)c1
→ -7	-8	0.5

A portion of the library; count on the stated rates, not on these rows.
